GIV-Gai inh: GIV-Galpha-i interaction inhibition. P08753. Galpha-i3/FITC-GIV peptide fluorescence polarization, 90 min; stronger effect = lower value; scaled: aluminum fluoride 0%, vehicle 100%. percent of control (FP), % (no concentration beside the values). 0.42% of 210,000 active;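 active = replicate mean at 85% of control or lower, very high polarization wells dropped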;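 also: wells of about 15 µL received 100 nL stock; the first replicate is given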
Target sequence (P08753 whole entry, looked up): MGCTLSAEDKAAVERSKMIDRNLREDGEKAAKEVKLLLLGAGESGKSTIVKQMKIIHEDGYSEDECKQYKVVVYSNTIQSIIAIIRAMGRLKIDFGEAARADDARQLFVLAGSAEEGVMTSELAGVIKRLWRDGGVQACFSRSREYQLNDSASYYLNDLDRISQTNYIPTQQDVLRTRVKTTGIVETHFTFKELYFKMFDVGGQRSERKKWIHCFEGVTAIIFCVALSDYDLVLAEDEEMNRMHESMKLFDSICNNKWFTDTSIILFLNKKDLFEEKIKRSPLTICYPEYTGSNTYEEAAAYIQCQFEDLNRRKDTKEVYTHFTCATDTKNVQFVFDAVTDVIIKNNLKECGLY
HCMV NEC inh: disrupts HCMV UL50-UL53 complex binding | inhibition, % (concentration not given with the values) | 0.15% of 190,000 active | AID 1918969 | HTRF UL50-UL53 interaction, normalized percent inhibition;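 active = both replicates at 50% or more, plus weaker picks with an unusually low signal ratio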;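 also: stock transfer was 100 nL into about 20 µL; 0% = negative control wells and 100% = wells with untagged competitor protein; inactives centre near -12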
Sa growth 42C: blocks Staphylococcus aureus growth | S. aureus RN4220 growth, OD600, 20 h, 42 °C; stronger effect = lower value | relative growth, % (no concentration beside the values) | 0.53% of 170,000 active | AID 720641;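 active = growth at 42 °C up to 50% and 20 or more points under that at 30 °C, or under 10% at both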;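 also: 300 nL library stock went into each well; scaled to the means of positive and negative controls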
Sa growth 42C second temp: recorded beside Sa growth 42C, whose call it bears; relative growth, %; measured here: growth at 30 °C;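 optical density after 20 h as mean of two plates; 100% = untreated growth and lower means inhibition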
* = called active by the depositor; / = no result given; & = joins results of further samples.

[1] COc1cc2[nH]c(=S)nc(NCCc3ccc(S(N)(=O)=O)cc3)c2cc1OC
[2] O=c1c2c(nc3nc(NCc4cccs4)[nH]n13)CCCC2
[3] COc1ccc2c(c1)c1c(c(=O)n(-c3ccc(F)c(Cl)c3)c(=O)n1CC(=O)N1CCCC1)n2C
[4] CCCOc1ccc(CC(=O)NC(C)CC)cc1OC (stereo not given)
[5] O=C(Cc1ccccc1)Nc1nc2ccccc2[nH]1
[6] c1coc(CNc2nc(N3CCOCC3)nc(N3CCOCC3)n2)c1
[7] Cc1ccc2oc(=O)n(CCNC(=O)Nc3ccc(Cl)cc3)c2c1
[8] Oc1ccccc1N1CCN(C(=S)NCc2ccccc2)CC1
Compound	1	2	3	4	5	6	7	8
GIV-Gai inh	111	111	105	104	/	103	96	/
HCMV NEC inh	9	-6	/	-8	-4	-8	-16	-13
Sa growth 42C	98	122	108	109	95	/	109	90
Sa growth 42C second temp	92	93	93	98	85	/	87	87

[9] CSc1n[nH]c(=O)c2cc(C)nn12
[10] O=S(=O)(c1ccc(F)cc1)N1CCC2(CC1)Nc1ccccc1-n1cccc12
[11] CN(/N=C/c1sc2ccccc2c1O)c1ccccc1
[12] CC1CCCCN1C(=O)CSc1n[nH]c(-c2ccccc2)n1 (stereo not given)
[13] C=CCNS(=O)(=O)c1ccc(N2C(=O)CCS2(=O)=O)cc1
[14] O=C(COc1ccccc1)Nc1nc(-c2ccccc2)ns1
[15] Cc1ccc(C)c(CN2CCC(CNC(=O)Nc3ccccc3)CC2)c1
[16] N#CCc1cccc(OCc2ccccc2)c1
Compound	9	10	11	12	13	14	15	16
GIV-Gai inh	111	103	/	102	108	103	106	103
HCMV NEC inh	-10	-16	-1	/	-33	1	-10	-17
Sa growth 42C	87	/	102	103	/	/	/	94
Sa growth 42C second temp	99	/	71	86	/	/	/	77

[17] CC(C)c1cccc(NC(=O)c2nn(C)c(C(F)(F)F)c2Cl)c1
[18] CCCCn1c(SCC(=O)NC(=O)NC2CCCC2)nc2ccccc2c1=O
[19] CCOC(=O)c1c(CC(C#N)(c2ccccc2)c2ccccc2)n(C)c2cc(Br)c(OC)cc12
[20] CC(C)NC(=O)CCC(=O)N1Cc2ccccc2Oc2ncccc21
[21] CN(C(=O)COC(=O)C1(c2ccc(Cl)cc2)CC1)C1CCS(=O)(=O)C1 (stereo not given)
[22] CCOC(=O)c1ccc(-n2c(C)cc(C=NCc3cn4ccsc4n3)c2C)cc1
[23] Cc1ccc(C2=CC(c3ccccc3)n3nc(N4C(=O)CCC4=O)nc3N2)cc1 (stereo not given)
[24] CCOc1ccccc1CNC(=O)c1ccc2c(c1)ncn2C1CCCC1
Compound	17	18	19	20	21	22	23	24
GIV-Gai inh	101	/	95	99	/	/	103	111
HCMV NEC inh	11	-20	-16	/	-13	0	-16	5
Sa growth 42C	/	113	/	101	86	89	/	108
Sa growth 42C second temp	/	90	/	96	92	95	/	97

[25] O/N=C(/Cc1ccc2ccccc2n1)c1ccccc1
[26] CCCn1c(SCC(=O)N2N=C(c3ccccc3)CC2c2ccc(OC)cc2)n[nH]c1=O (stereo not given)
[27] Cc1nc(C)c(-c2nnc(-c3ccc(C(F)(F)F)cc3)o2)s1
[28] COc1ccccc1/C=C1/SC(=O)N(CCN=C2NS(=O)(=O)c3ccccc32)C1=O
[29] O=C(CNC(=O)c1ccccc1F)OCc1ccccc1
[30] Cc1nn(-c2ccccc2)cc1/C=N/n1c(-c2ccncc2)n[nH]c1=S
[31] CCOc1cc(/C=C2/SC(=S)N(CC(=O)O)C2=O)ccc1Oc1ccc([N+](=O)[O-])cc1[N+](=O)[O-]
[32] CCCN(CCC)C(=O)c1cc2cccnc2n(Cc2ccccc2)c1=O
Compound	25	26	27	28	29	30	31	32
GIV-Gai inh	/	/	99	103	/	105	111	100
HCMV NEC inh	-26	-31	0	-9	-37	-6	-56	20
Sa growth 42C	96	85	83	/	129	96	/	/
Sa growth 42C second temp	86	91	72	/	86	79	/	/

[33] Cc1nn(CC(=O)NC2CCCC(C)C2C)c(=O)c2cc3cc(F)ccc3n12 (stereo not given)
[34] CS(=O)(=O)c1ncc(N(Cc2ccco2)Cc2cccs2)c(C(=O)Nc2ccccc2F)n1
[35] CCOc1ccccc1C(=O)Nc1ccc(-n2nncc2-c2ccccc2)cc1
[36] O=C(CCS(=O)(=O)c1ccccc1)Nc1ccc2c(c1)C(=O)NC2=O
[37] CCN(CC)C(=O)c1ccccc1NC(=O)c1cccc(S(=O)(=O)N(CC)CC)c1
[38] Cc1ccc(Cn2ccsc2=NC(=O)C2(C#N)CCCC2)cc1
[39] Cc1cccc2c1-c1sc(C(=O)NCCc3ccc(S(N)(=O)=O)cc3)cc1CO2
[40] COC(=O)CCCCCn1c(-c2ccccc2)cn2c3c(=O)n(C)c(=O)n(C)c3nc12
Compound	33	34	35	36	37	38	39	40
GIV-Gai inh	107	98	101	98	101	/	100	102
HCMV NEC inh	10	-19	/	-43	/	6	-12	27
Sa growth 42C	106	104	109	99	108	116	/	105
Sa growth 42C second temp	94	86	96	89	92	94	/	92

[41] CC(C)CNC(=O)C1=C(c2ccccc2)c2cc(Cl)ccc2S(=O)(=O)N1C
[42] COc1ccc(OCC(O)CNC(C)C)cc1 (stereo not given)
[43] Cc1cc2n(n1)CCCN2C(=O)Nc1cc(Cl)ccc1C
[44] O=C(COc1cccc(Cl)c1)N1CCC(c2nc3ccccc3o2)CC1
[45] CCOc1ccc(NC(=S)N2CCSC2c2ccc(C#CC(C)(C)O)s2)cc1 (stereo not given)
[46] Cc1cccc(C)c1Nc1sc(C(=O)c2ccccc2)c(N)c1S(=O)(=O)c1ccccc1
[47] CCOc1ccc(N=c2scc(-c3ccc(S(=O)(=O)N4CCCC4)cc3)n2CC)cc1
[48] Cc1cc(N2CCC(C(N)=O)CC2)nc2cc(O)ccc12
Compound	41	42	43	44	45	46	47	48
GIV-Gai inh	101	96	108	104	/	110	101	102
HCMV NEC inh	-12	-11	-8	-20	-4	/	/	3
Sa growth 42C	/	93	/	101	92	110	88	98
Sa growth 42C second temp	/	89	/	85	75	103	97	86

[49] CC(=O)NC(C)C1COc2ccccc2O1 (stereo not given)
[50] CCOC(=O)c1cnn(-c2ccccc2)c1NC(=O)CN1CCOCC1
[51] CN(C)c1ccc(NC(=O)CSC2=Nc3ccccc3C3=NC(CCC(=O)NCc4cccs4)C(=O)N23)cc1 (stereo not given)
[52] COc1cccc(NC(=O)Nc2ccc3nc4n(c(=O)c3c2)CCCC4)c1
[53] Cc1ccc(CNC(=O)COc2nc3ccccc3nc2N2CCOCC2)cc1
[54] NCCSc1ncc(-c2ccc(Cl)cc2)[nH]1
[55] COc1ccc(-c2nn(CN(CC(C)C)CC(C)C)c(=S)n2CC2CCCO2)cc1 (stereo not given)
[56] CCOc1cc(CNCc2ccc(CN3CCOCC3)cc2)ccc1OCC(=O)N(C)C
Compound	49	50	51	52	53	54	55	56
GIV-Gai inh	98	101	101	119	/	103	/	/
HCMV NEC inh	-22	-33	/	-20	-9	-1	-40	-7
Sa growth 42C	110	92	91	/	86	105	107	81
Sa growth 42C second temp	83	83	86	/	93	94	93	94

Part of the list above in order of length of the SMILES, high to low:
[31] CCOc1cc(/C=C2/SC(=S)N(CC(=O)O)C2=O)ccc1Oc1ccc([N+](=O)[O-])cc1[N+](=O)[O-]
[51] CN(C)c1ccc(NC(=O)CSC2=Nc3ccccc3C3=NC(CCC(=O)NCc4cccs4)C(=O)N23)cc1 (stereo not given)
[3] COc1ccc2c(c1)c1c(c(=O)n(-c3ccc(F)c(Cl)c3)c(=O)n1CC(=O)N1CCCC1)n2C
[19] CCOC(=O)c1c(CC(C#N)(c2ccccc2)c2ccccc2)n(C)c2cc(Br)c(OC)cc12
[21] CN(C(=O)COC(=O)C1(c2ccc(Cl)cc2)CC1)C1CCS(=O)(=O)C1 (stereo not given)
[56] CCOc1cc(CNCc2ccc(CN3CCOCC3)cc2)ccc1OCC(=O)N(C)C
[36] O=C(CCS(=O)(=O)c1ccccc1)Nc1ccc2c(c1)C(=O)NC2=O
[18] CCCCn1c(SCC(=O)NC(=O)NC2CCCC2)nc2ccccc2c1=O
[53] Cc1ccc(CNC(=O)COc2nc3ccccc3nc2N2CCOCC2)cc1
[15] Cc1ccc(C)c(CN2CCC(CNC(=O)Nc3ccccc3)CC2)c1
Compound	31	51	3	19	21	56	36	18	53	15
GIV-Gai inh	111	101	105	95	/	/	98	/	/	106
HCMV NEC inh	-56	/	/	-16	-13	-7	-43	-20	-9	-10
Sa growth 42C	/	91	108	/	86	81	99	113	86	/
Sa growth 42C second temp	/	86	93	/	92	94	89	90	93	/

[24] CCOc1ccccc1CNC(=O)c1ccc2c(c1)ncn2C1CCCC1
[20] CC(C)NC(=O)CCC(=O)N1Cc2ccccc2Oc2ncccc21
[43] Cc1cc2n(n1)CCCN2C(=O)Nc1cc(Cl)ccc1C
[8] Oc1ccccc1N1CCN(C(=S)NCc2ccccc2)CC1
[5] O=C(Cc1ccccc1)Nc1nc2ccccc2[nH]1
[4] CCCOc1ccc(CC(=O)NC(C)CC)cc1OC (stereo not given)
[42] COc1ccc(OCC(O)CNC(C)C)cc1 (stereo not given)
Compound	24	20	43	8	5	4	42
GIV-Gai inh	111	99	108	/	/	104	96
HCMV NEC inh	5	/	-8	-13	-4	-8	-11
Sa growth 42C	108	101	/	90	95	109	93
Sa growth 42C second temp	97	96	/	87	85	98	89

(further entries)
[57] COc1ccccc1-c1csc(Nc2cccnc2)n1
[58] COc1ccccc1NC(=O)c1ccc2c(Cl)c3c(nc2c1)CCCC3
[59] O=c1oc2cc(Br)ccc2n1CO
[60] CCN1CCn2c(nc3ccccc32)C1
[61] Cc1ccc(Cl)cc1N1CCN(C(=O)c2ccc3nc(N4CCC(C)CC4)sc3c2)CC1
[62] CN(C(=O)CSc1nc(N)cc(=O)[nH]1)c1ccccc1
[63] Cc1cccc(Nc2nc(Nc3ccccc3)c3cnn(C)c3n2)c1
[64] CCOC(=O)c1ccc(NC(=O)N2C3CCC2CC(NC(=O)NC24CC5CC(CC(C5)C2)C4)C3)cc1 (stereo not given)
Compound	57	58	59	60	61	62	63	64
GIV-Gai inh	106	99	106	104	103	101	106	102
HCMV NEC inh	-4	-49	4	11	-25	-9	-14	8
Sa growth 42C	114	102	77	/	101	106	/	95
Sa growth 42C second temp	85	93	26	/	92	73	/	75

[65] CCCN1CCN(C(=O)C2CCCN2c2nnc(N3CCCC3=O)s2)CC1 (stereo not given)
[66] O=C(COCc1cc(-c2cccs2)on1)NC1CCCc2ccccc21 (stereo not given)
[67] Cc1ccc(Cc2c(C)nc3nc(SCC(=O)NCCC(C)C)nn3c2C)cc1
[68] COCCCNC(=O)CCC(=O)NNc1nc2ccccc2c2nc(-c3ccccc3)nn12
[69] CC1CN(C(=O)CCC(=O)NCc2cccs2)c2cc(Cl)ccc2O1 (stereo not given)
[70] O=C(COc1ccc(-c2ccccc2)cc1)N1CCCC1
[71] CCOC(=O)c1cc2n(n1)C(C(F)(F)F)CC(c1ccccc1)N2 (stereo not given)
[72] O=C1c2ccccc2C(=O)N1c1ccc2ncccc2c1
Compound	65	66	67	68	69	70	71	72
GIV-Gai inh	103	105	100	96	99	/	102	/
HCMV NEC inh	4	-35	-4	8	5	-6	/	-15
Sa growth 42C	/	89	82	91	94	100	88	96
Sa growth 42C second temp	/	66	91	94	92	88	83	88

[73] Cc1cccc(NC(=O)C2CCC(CNS(=O)(=O)c3ccc(Br)s3)CC2)c1 (stereo not given)
[74] COC(=O)Nc1nnc(SCc2ccc(C)cc2)s1
[75] CC1CN(C(N)=S)N(c2ccccc2)C1 (stereo not given)
[76] COc1ccc(-n2cc(-c3ccccc3)c3c(NCc4ccccc4)ncnc32)cc1
[77] CCOC(=O)c1cc2c(=O)n3ccccc3nc2n(CC2CCCO2)c1=NC(=O)c1ccc(OC)cc1OC (stereo not given)
[78] O=C(CN1C(=O)c2cccnc2Oc2ccc(Cl)cc21)NCCc1ccccc1
[79] CCCNC(=O)C1CCN(c2cc(C)nc3c(-c4ccc(Cl)cc4)c(C)nn23)CC1
[80] COc1ccc(-c2nnn3c2nc(NCc2ccccc2)c2ccccc23)cc1
Compound	73	74	75	76	77	78	79	80
GIV-Gai inh	100	103	103	113	106	101	106	109
HCMV NEC inh	-32	-9	-6	/	-99	/	/	-23
Sa growth 42C	108	109	102	94	108	110	104	113
Sa growth 42C second temp	90	100	103	91	94	83	101	89

[81] COc1ccc2nc(C)cc(Nc3ccccc3)c2c1
[82] COc1ccc(C2CC(=O)C3=C(C2)Nc2ccccc2NC3c2coc3ccc(Cl)cc3c2=O)cc1OC (stereo not given)
[83] COC(=O)C1=C(C)NC(C)=C(C(=O)OCCCN2CCC(c3ccccc3)(c3ccccc3)CC2)C1c1cccc([N+](=O)[O-])c1 (stereo not given)
[84] COc1ccc(CNC(=O)Cc2c(C)c3c(O)cc(C)cc3oc2=O)cc1
Compound	81	82	83	84
GIV-Gai inh	/	107	95	91
HCMV NEC inh	-13	-5	-37&-13	-35
Sa growth 42C	65	/	86	94
Sa growth 42C second temp	95	/	57	85
